Bioassay records: PubChem, National Center for Advancing Translational Sciences (NCATS)
Tau fluor counter – counter-screen for tau fibril formation inhibitors; Potency, µM (series often up to 57.7 µM), for inactives: top-dose activity change, negative = decrease; tau K18 P301L Alexa594 fluorescence, heparin fibrillization; 280,000 compounds, 0.93% hits; further: on the % scale 0 is the no-effect control and ±100 the full control effect; nearly all actives have a fitted effect of over 55% in size
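Human tau K18 P301L (15 uM unlabeled, 0.24 uM Alexa 594-labeled) in 100 mM sodium acetate pH 7 with 20 uM heparin, 6 hr at 37 C. ThT 30 uM added, 1 hr ambient; Alexa 594 FP and total fluorescence read at 555/632 nm.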
aGal spleen mod – alpha-galactosidase A (human) modulation; P06280; human spleen homogenate, 4MU-alpha-Gal fluorescence, 40 min; Potency, µM (series often up to 80 µM), for inactives: at the top dose activity change, negative = inhibition, usual class: inhibitors; 240,000 compounds, 0.008% hits;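 further: 0% = enzyme with vehicle and -100% = no enzyme basal signal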
Target sequence (P06280 32-429 limits assumed): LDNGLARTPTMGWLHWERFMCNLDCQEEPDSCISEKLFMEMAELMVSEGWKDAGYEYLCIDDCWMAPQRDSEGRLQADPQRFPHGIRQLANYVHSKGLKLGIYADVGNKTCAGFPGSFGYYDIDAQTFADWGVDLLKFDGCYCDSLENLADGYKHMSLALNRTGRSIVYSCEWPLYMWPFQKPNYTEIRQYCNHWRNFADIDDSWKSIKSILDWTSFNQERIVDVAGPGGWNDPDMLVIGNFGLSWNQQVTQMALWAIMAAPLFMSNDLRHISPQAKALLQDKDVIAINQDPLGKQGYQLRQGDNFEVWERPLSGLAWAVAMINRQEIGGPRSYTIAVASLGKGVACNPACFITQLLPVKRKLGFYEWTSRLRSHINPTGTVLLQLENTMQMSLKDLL
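Fluorogenic readout (Ex 365/Em 440 nm) of 4-methylumbelliferone released from 1 mM 4-MU-alpha-galactoside by spleen homogenate, 40 min at 37C, pH 5.0. Data normalized to no-enzyme and enzyme controls; Hill-equation AC50 from compound titrations.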
Tau FP inhib – inhibitors of human tau fibril formation; P10636; K18 P301L tau heparin fibrillization, Alexa594 FP, 6 h; Potency, µM (doses to about 57.7 µM), without a hit: top-dose activity, negative = inhibition, usual class: inhibitors; 280,000 compounds, 0.39% hits; further: on the % scale 0 is the no-effect control and ±100 the full control effect; nearly all actives have a fitted effect of over 55% in size
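Heparin (20 uM) drove fibril formation of recombinant tau K18 P301L, 15 uM unlabeled with 0.24 uM Alexa 594 label, for 6 hr at 37 C in 100 mM sodium acetate pH 7. Fluorescence polarization (555/632 nm) read 1 hr after 30 uM ThT.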
Epigenetic derep – derepresses silenced GFP reporter in murine cells | murine LDR cells, GFP reporter derepression, 30 h | Potency, µM (top dose mostly 53.9 µM), inactives show at the highest dose GFP activation, actives largely listed as activators | 280,000 compounds, 0.2% hits | AID 1865; further: % of control where 0% means no effect; nearly all actives have a fitted effect of over 60% in size
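Murine LDR cells bearing a silenced CMV-driven GFP reporter were exposed to compound for 30 h at 37 C. After PBS washes, GFP-positive cells (20-120 um objects) counted by laser-scanning microplate cytometry.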
* hit, by the source's call; u = inconclusive; x = no result given; & = joins results of further samples; [ ] = dose if it differs, or a comment. The call rests on the fitted dose curve; in most records, active means well fitted curve in the direction sought with a large enough effect; inconclusive means small, poorly fitted or top-dose-only effect, or another doubt; inactive means no such curve, though single readings can be large; an effect the other way counts as inactive or inconclusive. Potency means the concentration at half of the fitted maximal effect. The list is partial; the hit share may differ from the screen's.

SMILES	Tau fluor counter	aGal spleen mod	Tau FP inhib	Epigenetic derep
CCNCC	x	1.7%	x	x
OCC[n+]1c2ccccc2nc2ccc(N3CCOCC3)cc21	-6.8%	-13.3%	u	-3.6%
COC[C@H]1OC(=O)c2coc3c2[C@@]1(C)C1=C(C3=O)C2CCC(=O)[C@@]2(C)C[C@H]1OC(C)=O (some centres not stated)	u	-0.8%&-9.8%&-1.2%	u	-1.2%&0.0%&10.2%
C[C@H](N)[C@H](O)c1ccc(O)c(O)c1	x	-10.2%[29.1 µM]	x	-0.3%[16.9 µM]
Clc1cccc(N2CCNCC2)c1	-0.8%&-0.2%&-1.9%	-13.1%&-6.2%&2.7%	1.1%&-1.7%&-4.6%	-0.2%&2.1%&-0.8%
C=CCO[C@@H](Cn1ccnc1)c1ccc(Cl)cc1Cl	x	-1.4%[29.1 µM]	x	-2.5%[16.9 µM]
CN1C2CCC1CC(OC(=O)c1cc(Cl)cc(Cl)c1)C2 (configuration not stated)	-2.7%&2.1%&-6.1%	20.6%&-8.9%&7.2%	1.0%&-5.9%&-2.0%	3.7%&0.8%&11.5%
c1nc[nH]n1	x	14.8%	x	x
C[C@@H]1O[C@H](O[C@@H]2C[C@@H](O)[C@]3(CO)[C@H]4[C@H](O)C[C@]5(C)[C@@H](C6=CC(=O)OC6)CC[C@@]5(O)[C@@H]4CC[C@]3(O)C2)[C@@H](O)[C@H](O)[C@H]1O	-7.1%	4.1%	-5.8%	-1.5%
CC(C)OC1CCCC(O)C1CC(=O)O (configuration not stated)	4.4%	2.0%	7.4%	-1.4%
CNC(=O)Oc1cccc2c1OC(C)(C)O2	-8.2%	-1.6%	-11.7%	1.0%
C[C@@H]1O[C@@H](OC2CC(O)C3(CO)C4C(CCC3(O)C2)C2(O)CCC(C3=CC(=O)OC3)C2(C)C[C@H]4O)[C@H](O)[C@H](O)[C@H]1O (some centres not stated)	-11.0%	14.0%	-4.4%	-0.1%
CC1O[C@@H](O[C@@H]2C(O)C[C@H](O[C@@H]3C(O)C[C@@H](OC4CC[C@@]5(C)C6CC[C@]7(C)C(C8=CC(=O)OC8)CC[C@@]7(O)C6CC[C@@H]5C4)OC3C)OC2C)CC(O)[C@H]1O (some centres not stated)	-7.9%	-12.8%	3.2%	-1.3%
CNC(C)C(O)c1ccccc1 (configuration not stated)	-6.4%	-5.5%	2.4%	-1.3%
COc1cc(OC)c(OC)cc1C=O	-0.5%	5.3%&6.1%	-7.2%	-0.5%

A different layout for ten compounds above:
mol,Tau fluor counter,aGal spleen mod,Tau FP inhib,Epigenetic derep
CCNCC,x,1.7%,x,x
OCC[n+]1c2ccccc2nc2ccc(N3CCOCC3)cc21,-6.8%,-13.3%,u,-3.6%
COC[C@H]1OC(=O)c2coc3c2[C@@]1(C)C1=C(C3=O)C2CCC(=O)[C@@]2(C)C[C@H]1OC(C)=O (some centres not stated),u,-0.8%&-9.8%&-1.2%,u,-1.2%&0.0%&10.2%
C[C@H](N)[C@H](O)c1ccc(O)c(O)c1,x,-10.2%[29.1 µM],x,-0.3%[16.9 µM]
Clc1cccc(N2CCNCC2)c1,-0.8%&-0.2%&-1.9%,-13.1%&-6.2%&2.7%,1.1%&-1.7%&-4.6%,-0.2%&2.1%&-0.8%
C=CCO[C@@H](Cn1ccnc1)c1ccc(Cl)cc1Cl,x,-1.4%[29.1 µM],x,-2.5%[16.9 µM]
CN1C2CCC1CC(OC(=O)c1cc(Cl)cc(Cl)c1)C2 (configuration not stated),-2.7%&2.1%&-6.1%,20.6%&-8.9%&7.2%,1.0%&-5.9%&-2.0%,3.7%&0.8%&11.5%
c1nc[nH]n1,x,14.8%,x,x
C[C@@H]1O[C@H](O[C@@H]2C[C@@H](O)[C@]3(CO)[C@H]4[C@H](O)C[C@]5(C)[C@@H](C6=CC(=O)OC6)CC[C@@]5(O)[C@@H]4CC[C@]3(O)C2)[C@@H](O)[C@H](O)[C@H]1O,-7.1%,4.1%,-5.8%,-1.5%
CC(C)OC1CCCC(O)C1CC(=O)O (configuration not stated),4.4%,2.0%,7.4%,-1.4%
